# Source: PubChem
# T cruzi inh: T. cruzi replication inhibition; T. cruzi beta-gal in NIH3T3, luminescence, 90 h; inhibition, % (concentration not given with the values); hit rate 1.4% among 300,000; AID 1885;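 active means mean inhibition across valid replicates above about 55%, limit read from the data; inconclusive means mean below that limit but half or more replicates reach it; inactive means mean below it, under half of replicates reach it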;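 further: signal also drops with host cell toxicity which is not excluded here; 0% = plate median of DMSO wells and 100% = zero luminescence signal; higher percent means less beta-gal luminescence so fewer parasites; stock transfer was 50 nL into about 50 µL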
# Calb FLC: C. albicans growth modulation with fluconazole. hit rate 0.57% among 300,000. AID 1979. growth inhibition, % (test concentration not listed). C. albicans CaCi-2 (fluconazole-resistant clinical isolate) + fluconazole, Alamar Blue growth, 48 h;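 active means most replicates above 75%; inconclusive means exactly half above 75%; inactive means most below 75%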;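 further: all wells also contain fluconazole at 8 µg/ml as a sub-toxic cotreatment; 0% = median of DMSO wells and 100% = median of geldanamycin control wells; wells of about 8 µL received 7.5 nL stock; the first replicate is given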
# Vif A3G: HIV-1 Vif–A3G interaction blockers – biochemical, TR-FRET, GST-Vif 1-94, biotin-A3G peptide, dose response retest, primary screen (AID 1117319); hit rate 0.57% among 260,000; inhibition, %; hits with a dose series show IC50 in µM; TR-FRET GST-Vif / biotin-A3G peptide binding; higher % means a stronger effect; test concentration not given here; strong numbers were not always called active;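 active means above the screen mean plus three standard deviations and confirmed in dose response; inconclusive means results disagree or hit not tested in dose response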;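 further: Vif residues 1-94 fused to GST binding biotinylated APOBEC3G peptide 110-148; 0% = full assay without inhibitor and 100% = GST in place of GST-Vif; retest series ran down from 100 µM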
# rRNA inh HTS: inhibits bacterial ribosomal RNA function over humanized ribosomes | E. coli WT GFP vs humanized-ribosome RFP mutants, fluorescence, 24 h; stronger effect = lower value; DMSO median 0, no signal -100 | GFP signal change (wild-type ribosome), % (test concentration not listed) | hit rate 1.6% among 350,000;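 active means significant combined selectivity score with lowered wild-type GFP, culture density cut under 30%, mutant RFP and density less affected; inactive means any of these conditions unmet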; further: one replicate is shown; some compounds called inactive have numbers as strong as hits
# Bfl-1 A1 inh: inhibitors of the anti-apoptotic protein A1, read as caspase activation. hit rate 0.066% among 330,000. caspase activation, % (test concentration not listed). MEF A1-2A-BIM cells, Caspase-Glo 3/7 luminescence, 3 h; percent of clofoctol response, vehicle zero. AID 2462;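 active means over half of replicate activation scores above 10%, or exactly half above 10 with the replicate mean above 10; inconclusive means replicate mean below 10 yet half the replicates above 10; inactive means over half of replicates below 10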;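 further: wells of about 30 µL received 50 nL stock; many hits fall short of the cut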
# Beta apoptosis: beta cell apoptosis inhibition; INS-1E cytokine-induced death, ATP luminescence, 48 h; percent of positive-control rescue, neutral wells zero; protection from apoptosis, % (concentration not given with the values); hit rate 0.8% among 300,000;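 active means all replicates at 75% or more, or half of them and the mean; inconclusive means half reach 75% but not the mean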;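 further: 0% = cytokine-treated negative control wells and 100% = positive control rescue; higher means more ATP so stronger rescue from cytokine killing; wells of about 40 µL received 100 nL stock; the first replicate is given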
# RanGTP-Imp inh: inhibitors of RanGTP-importin-beta interaction, primary screen, biochemical, FRET, CFP-Ran, YFP-importin-beta, homogeneous; cell-free CFP-Ran/YFP-importin-beta FRET ratio; inhibition, % (concentration not given with the values); hit rate 1.1% among 300,000; AID 2216;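 active means most replicates above 15%; inconclusive means exactly half above 15%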;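 further: 0% = DMSO wells and 100% = Ran loaded with GDP instead of GTP; wells of about 40 µL received 100 nL stock; the first replicate is given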
# AF4-AF9 inh: inhibitors of human MLL-AF4/AF9 interaction | AID 651704 | AlphaScreen, biotin-AF4 peptide binding to FLAG-AF9 | inhibition, % at 10 µM | hit rate 0.47% among 350,000;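 active means every replicate reaching a set inhibition limit, whatever the replicate mean, cut at about 25% in these data; inconclusive means mean inhibition reaches that limit but some replicates miss it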;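 further: 0% = plate neutral control median and 100% = total signal loss; the record names both 10 and 1 µM as test concentration; the first replicate is given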
# Target sequence (P42568 whole entry, looked up): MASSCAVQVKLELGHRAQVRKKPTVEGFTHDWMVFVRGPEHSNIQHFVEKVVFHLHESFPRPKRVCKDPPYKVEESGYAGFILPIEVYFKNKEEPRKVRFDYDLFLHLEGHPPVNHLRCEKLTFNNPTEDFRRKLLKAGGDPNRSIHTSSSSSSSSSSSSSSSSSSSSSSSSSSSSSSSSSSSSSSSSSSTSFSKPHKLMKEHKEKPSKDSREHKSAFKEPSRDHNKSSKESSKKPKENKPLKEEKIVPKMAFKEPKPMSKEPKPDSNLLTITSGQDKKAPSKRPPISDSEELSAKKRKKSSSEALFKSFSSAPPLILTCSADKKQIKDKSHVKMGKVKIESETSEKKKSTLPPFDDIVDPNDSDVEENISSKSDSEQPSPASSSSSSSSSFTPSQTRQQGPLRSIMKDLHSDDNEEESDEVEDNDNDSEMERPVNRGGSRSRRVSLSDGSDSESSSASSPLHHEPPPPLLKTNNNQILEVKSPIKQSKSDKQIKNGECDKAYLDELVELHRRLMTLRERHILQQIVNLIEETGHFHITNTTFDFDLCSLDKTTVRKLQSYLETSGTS
# rRNA inh HTS OD600: further read-out of rRNA inh HTS, marked with its call; OD600 change, %; measured here: OD600 growth;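 optical density of the mix in the first replicate; 0 = DMSO median and -100 = no signal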
# rRNA inh HTS RFP: second read-out of rRNA inh HTS, no call of its own (marks repeat the call); RFP signal change, %; measured here: RFP humanized mutant strains;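 first replicate; 0 = DMSO median and -100 = no signal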
# * = called active by the depositor; ? = inconclusive; . = no result given; & = joins results of further samples. A portion of the library, so the mix of outcomes need not match the whole.
SMILES,T cruzi inh,Calb FLC,Vif A3G,rRNA inh HTS,rRNA inh HTS OD600,rRNA inh HTS RFP,Bfl-1 A1 inh,Beta apoptosis,RanGTP-Imp inh,AF4-AF9 inh
CCCc1nc2ccc(NC(=O)c3cccs3)cc2c(=O)n1Cc1ccccc1Cl,39.6,1.0,18.6%,11.3,19.3,-2.0,0.4,5.3,4.0,-14.5
CSc1nc(-c2ccco2)nn1C(=O)c1cccs1,0.1,0.5,3.1%,.,.,.,0.1,3.2,2.9,.
CC(CCc1ccccc1)N(C)CC(O)c1cccc([N+](=O)[O-])c1 (stereo unspecified),16.3,0.9,-11.1%,5.9,-3.9,-1.3,1.1,-3.2,2.8,-6.0
CC(c1ccccc1)C1CC(=O)N(c2ccc([N+](=O)[O-])cc2)C1=O (stereo unspecified),-2.1,10.4,.,7.1,9.5,1.7,-0.3,-0.5,-5.8,3.2
COc1cccc(CN2CCN(Cc3nc(C(C)C)cs3)CC2CCO)c1 (stereo unspecified),35.8,-12.6,-2.1%,10.6,2.2,3.8,-0.1,1.3,?,-1.1
O=C(CSc1nnc(NC(=O)c2ccco2)s1)Nc1ccc(F)cc1F,-11.0,0.6,.,7.8,5.5,-1.9,-2.1,1.7,-7.1,-0.6
COc1ccccc1C(CNC(=O)c1cccc(NS(=O)(=O)c2ccc(C)c(F)c2)c1)N1CCCC1 (stereo unspecified),4.6,-9.9,-4.9%,6.0,-6.6,2.9,-0.3,3.6,-0.1,11.1
CC(C)c1cccc(OCCCCN(C)C)c1,65.0*,1.2,-7.9%,8.6,5.1,1.2,0.8,.,-2.2,-1.1
Cc1ccc2oc(=O)c3cnn(CC(=O)N4CCCCC4C)c3c2c1 (stereo unspecified),-12.7,2.6,?,-0.5,0.1,-8.3,1.3,-4.4,?,-14.5
CCOC(=O)C1CCCN(C(=O)c2cc(Nc3ccc(OC)c(OC)c3)nc3ccccc23)C1 (stereo unspecified),7.7,32.1,1.7%,.,.,.,-0.6,-4.6,-0.3,.
CCOC(=O)/C(C#N)=C/c1c(N2CCN(c3ccccc3)CC2)nc2c(C)cccn2c1=O,37.7,-2.1,-0.8%,10.9,12.4,1.1,0.2,6.4,-5.1,17.5
Cc1cc(C)cc(C(=O)Nc2c3c(nn2C(C)(C)C)CS(=O)(=O)C3)c1,20.5,-5.0,.,6.4,10.2,0.2,0.4,-2.2,0.4,-1.8
O=C(COC(=O)CNC(=O)c1ccc(-c2ccccc2)cc1)NCc1ccco1,-4.1,4.2,?,15.6,12.9,-0.4,-0.7,-2.7,-3.0,-3.6
O=c1c2ccccc2nnn1Cc1ccccn1,-6.9,-2.6,9.7%,.,.,.,0.4,-0.8,5.7,.
COc1cc([C@@H]2c3cc4c(cc3[C@@H](O)[C@@H](CO)[C@@H]2CO)OCO4)cc(OC)c1O[Si](C)(C)C(C)(C)C,26.8,24.7,.,.,.,.,0.3,-7.2,-1.1,.
O=C(CCC(=O)N1CCCC1)Nc1nnc(C(F)(F)F)s1,-16.0,-3.9,2.1%,.,.,.,1.3,.,-5.9,.
CCOC(=O)N1CCN(C(=O)CSc2nc3c(cnn3-c3ccc(C)cc3)c(=O)[nH]2)CC1,27.5,2.7,-8.1%,2.6,-8.4,-2.1,.,4.6,0.4,?
CCOc1ccc(CCNC(=O)CCNC(=O)c2ccc(Br)cc2)cc1OCC,0.5,-2.4,.,6.4,8.3,-1.7,0.5,-11.9,-0.1,0.4
CCN(CCCCCCN)c1ccc2c(=O)[nH][nH]c(=O)c2c1,3.6,-28.4,2.9%,8.2,-8.3,-3.0,0.4,-1.3,-11.1,-1.4
COc1ccc(N(C(=O)c2snc(C(N)=O)c2N)C(C(=O)NC2CCCC2)c2ccco2)cc1OC (stereo unspecified),-4.0,0.3,.,-3.2,-0.4,-3.5,.,.,-0.8,-8.3
O=C(NCCNc1ccc([N+](=O)[O-])cc1)c1ccccc1F,-22.8,13.7,.,4.3,8.7,-1.4,0.2,.,2.9,-1.3
O=C(NC1CCCCC1)C(Cc1ccccc1)NS(=O)(=O)c1cccs1 (stereo unspecified),8.0,-15.0,10.4%,.,.,.,0.9,0.4,-1.7,.
CCCCN(Cc1cc2cccc(C)c2[nH]c1=O)S(C)(=O)=O,13.5,-7.4,3.3%,2.2,-6.4,-8.9,0.9,-3.2,9.2,0.4
CCOC(=O)CSc1nnc(SCCN2C(=O)c3ccccc3C2=O)s1,-21.5,-2.7,3.6%,.,.,.,-1.2,.,2.3,.
O=C(O)c1ccccc1NCN1C(=O)C2CC=C(Cl)CC2C1=O (stereo unspecified),9.3,-5.4,1.6%,.,.,.,1.6,0.3,-0.2,.
# Additional structures.
SMILES,T cruzi inh,Calb FLC,Vif A3G,rRNA inh HTS,rRNA inh HTS OD600,rRNA inh HTS RFP,Bfl-1 A1 inh,Beta apoptosis,RanGTP-Imp inh,AF4-AF9 inh
COc1cccc(CNC(=O)c2ccc(NC(=O)CC3SC(N4CCCCC4)=NC3=O)cc2)c1 (stereo unspecified),.,.,-5.9%,-1.2,1.1,1.0,1.4,-5.1,.,2.6
Cc1ccc(Nc2nc(-c3ccc(S(=O)(=O)N4CCCC4)cc3)cs2)cc1C,21.6,10.7,10.8%,.,.,.,0.2,.,-1.9,.
O=C(Nc1nnc(CC2=CCCCC2)s1)Nc1ccccc1F,12.2,-9.9,-5.4%,.,.,.,-0.7,1.9,7.1,.
CCCc1cc(C(=O)OC)c(NC(=O)CCCC(=O)O)s1,-4.0,4.5,.,5.5,7.2,-0.5,-0.3,3.8,2.3,-4.2
C/C(Cl)=C\Cn1c(Nc2ccccc2)nc2c1c(=O)n(C)c(=O)n2C,24.4,1.6,-3.0%,.,.,.,-0.3,-0.9,-0.9,.
COc1ccc(N2CCN(C(=O)Cn3nnc(-c4ccc(N(C)C)cc4)n3)CC2)cc1,8.5,0.5,.,21.2,18.1,1.2,0.6,-1.6,?,-0.9
CC1(C)Cc2cccc(OCC(=O)Nc3ccccc3N3CCOCC3)c2O1,4.1,58.9,-1.1%,.,.,.,1.0,7.7,0.3,.
CC(=O)Nc1ccc(C(=O)N/C(=C/c2ccccc2)C(=O)N2CCCCC2)cc1,2.2,-10.6,11.1%,-5.4,-5.6,-2.4,0.9,-1.2,-1.7,0.8
Cc1ccc(N2C(=O)c3n[nH]c(C)c3C2c2cccnc2)cc1 (stereo unspecified),5.7,-8.7,6.3%,.,.,.,0.3,.,0.3,.
Cc1ccc([N+](=O)[O-])cc1S(=O)(=O)NCCc1c(C)[nH]c2c(C)cccc12,-4.4,-1.4,16.0%,-20.2*,3.3*,-2.7*,0.3,-1.9,-1.5,3.9
Cc1ccc(N2CC(C(=O)Nc3nnc(C)s3)CC2=O)cc1 (stereo unspecified),-10.7,-7.7,3.7%,22.2,12.8,0.3,-0.3,-1.9,-2.0,-1.9
CCOc1ccc(S(=O)(=O)N(C)CC(=O)N2CCCC2)cc1,-8.3,5.2,.,6.8,3.6,0.1,0.7,2.2,-1.9,2.2
Nc1cc(S(=O)(=O)c2ccc(O)c(N)c2)ccc1O,12.5,-9.2,?,7.2,-3.4,-5.7,-0.1,1.0,-4.8,1.4
O=C(N/N=C\c1cc2c(cc1[N+](=O)[O-])OCO2)c1cccs1,.,0.1,.,3.9,11.1,1.9,0.4,1.4,.,-1.0
CCC(=O)c1ccc(OCC(=O)Nc2cc(S(=O)(=O)N3CCCCC3)ccc2OC)cc1,10.6,-5.7,-2.5%,9.1,7.8,0.5,0.7,-3.0,-2.9,-0.1
COc1ccc(NC(=O)/C(C#N)=C/c2ccc(Br)o2)cc1,-3.6,-10.0,14.7µM*,.,.,.,-0.5,3.7,2.1,.
COC(=O)c1c(NC(=O)CSc2nc(-c3ccco3)cc(C(F)(F)F)n2)sc2c1CCCC2,4.5,7.3,-3.7%,16.4&-2.3,7.5&6.0,0.1&-3.0,0.9,-1.4,6.0,-31.9
CC(C)CCn1c(CN2CCN(C(=O)c3ccco3)CC2)nc2c1c(=O)n(C)c(=O)n2C,8.7,-2.8,3.2%,-2.3,9.1,0.1,0.3,-0.6,-0.9,-8.7
COc1cc(C(=S)N2CCOCC2)ccc1OC(=O)c1cc(OC)c(OC)c(OC)c1,-8.7,5.0,2.1%,0.6,-10.8,0.2,-0.6,5.8,2.9,8.5
Cc1cc(NC(=O)c2ccc(F)cc2)n(-c2ccccn2)n1,6.9,-6.8,-3.9%,-7.0,-3.6,1.6,-0.5,8.4,0.3,0.1
CCCCSCc1[nH]c(=O)[nH]c1C(=O)CCCCC(=O)OCC,-7.4,-1.2,-5.5%,.,.,.,0.5,-2.2,0.2,.
COCc1nnc(SCC(=O)NC(C)c2ccccc2)n1-c1ccccc1 (stereo unspecified),-5.3,-11.2,-4.3%,10.4,6.4,1.2,0.5,.,1.7,.
Cc1cc(-c2nnc3sc(-c4ccc(Cl)cc4Cl)nn23)n[nH]1,16.0,5.4,-11.3%,.,.,.,0.3,9.5,3.6,.
CC(Oc1ccc2c3c(c(=O)oc2c1)CCCC3)C(=O)NCc1ccccn1 (stereo unspecified),-5.0,-3.4,3.5%,-8.6,-7.1,1.5,0.3,3.2,3.6,-16.3
Cc1ccc(C)c(S(=O)(=O)N2CCN(C(=O)CSc3ccccc3)CC2)c1,20.1,0.2,.,0.2,-13.5,-0.8,-0.6,-15.6,1.4,-1.1
# The results go on.
SMILES,T cruzi inh,Calb FLC,Vif A3G,rRNA inh HTS,rRNA inh HTS OD600,rRNA inh HTS RFP,Bfl-1 A1 inh,Beta apoptosis,RanGTP-Imp inh,AF4-AF9 inh
C/C(=N\NC(=O)c1ccc(F)cc1)c1ccccn1,50.6,-10.4,.,-5.7,-0.7,8.9,-2.2,110.9*,6.1,0.7
CCOc1ccc(NS(=O)(=O)c2ccc(NS(=O)(=O)c3ccccc3)cc2)cc1,-2.1,13.4,7.2%,.,.,.,-0.1,3.2,-0.2,.
CCn1c(-c2cc(Cl)ccc2OC)n[nH]c1=S,-19.6,-3.5,-6.5%,.,.,.,-1.0,4.7,5.8,.
COc1ccc(-c2nc3n(c2C)Cc2ccccc2-3)cc1,2.4,?,17.1%,-16.0,-11.6,-4.2,-2.1,1.9,1.0,9.8
CC(CCc1ccccc1)NC(=O)C(=O)NCCO (stereo unspecified),-0.3,-10.4,-2.1%,.,.,.,-1.5,-4.6,-0.5,.
CC(OC(=O)Cn1[nH]c(=O)c2ccccc2c1=O)C(=O)Nc1ccc(F)cc1Cl (stereo unspecified),-3.5,-0.2,7.7%,5.4,12.2,-0.7,1.0,-4.4,2.3,-7.1
CN1CCN(C(=O)c2ccccc2-c2ccccc2C(=O)O)CC1,-20.7,-4.2,5.9%,.,.,.,0.9,-7.7,1.7,.
